Vaccinia inh: blocks a specific stage of Vaccinia orthopoxvirus infection | activity change (mCherry), % (test concentration not listed) | 0.01% of 89,000 active | Vaccinia-infected cells, mCherry/Venus stage reporter fluorescence; hits give low values; some inactives read as strong as hits;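 active = mCherry past -33% and 40 or more points under the early reporter, replicates agreeing; inconclusive = past -33% without that gap or agreement; tested in A549 cells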;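 note: scaled between vehicle wells and reference inhibitor wells; 23 nL library stock went into each well; one replicate is shown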
Vaccinia inh Venus: further read-out of Vaccinia inh, marked with its call; activity change (Venus), %; measured here: Venus reporter, other viral stage;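 negative = less Venus signal; first of two replicates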
Numbers without * were called inactive; u = inconclusive; x = not tested or not shown; & = joins results of further samples. Only part of the results is shown, so the mix of outcomes need not match the whole.

Compound,Vaccinia inh Venus,Vaccinia inh
CNC[C@H]1OCCCC[C@@H](C)Oc2ccc(NS(=O)(=O)c3ccccc3)cc2C(=O)N([C@H](C)CO)C[C@H]1C,2.4,7.8
Cc1cccc(-c2ccc([C@H]3[C@H](CO)N4CCCCN(S(=O)(=O)c5ccccc5C)C[C@@H]34)cc2)c1,-4.6,-11.0
O=C(C[C@H]1CC[C@H]2[C@@H](COC[C@H](O)CN2Cc2cc(F)ccc2F)O1)NCc1ccccc1,15.8,31.8
N#Cc1ccc(-c2ccc3c(c2)[C@@H]2[C@@H](CCN2C(=O)CN2CCOCC2)[C@H](CO)N3)cc1,2.2,0.0
Cc1ccc(S(=O)(=O)N(C)C[C@@H]2Oc3c(NS(=O)(=O)c4ccccc4)cccc3C(=O)N([C@H](C)CO)C[C@@H]2C)cc1,-13.7,-11.6
C[C@H]1CN([C@@H](C)CO)S(=O)(=O)c2ccc(C#CC(C)(C)O)cc2O[C@H]1CN(C)Cc1ccncc1,-0.4,5.1
COc1ccccc1-c1cn(CC[C@H]2CC[C@@H](NC(=O)C3CCCCC3)[C@@H](CO)O2)nn1,4.6,9.5
C[C@@H]1CN([C@@H](C)CO)C(=O)Cc2cc(NS(=O)(=O)c3cccs3)ccc2O[C@H]1CN(C)S(=O)(=O)c1ccc(Cl)cc1,1.0,1.1
Cc1ccc(OC(=O)N(C)C[C@H]2OCc3cnnn3CCCC(=O)N([C@@H](C)CO)C[C@H]2C)cc1,9.5&0.9,10.3&-3.4
CN(C)C(=O)c1ccc(-c2cccc(-c3nc(C(=O)N(C)C)cc4c3[C@H](CCO)N([S@@](=O)C(C)(C)C)C4)c2)cc1,22.7,11.5
C[C@@H]1CN([C@H](C)CO)C(=O)CCCn2nncc2CO[C@H]1CN(C)C(=O)Nc1ccc(N2CCCCC2)cc1,12.0&3.7,6.8&8.8
CCCN(C)C[C@H]1Oc2cc(-c3cccc(OC)c3)ccc2S(=O)(=O)N([C@@H](C)CO)C[C@H]1C,-2.0,4.3
COc1ccc(CN2C[C@@H](O)COC[C@H]3O[C@H](CC(=O)NCc4ccccc4Cl)CC[C@@H]32)cc1,-6.5,-4.6
CCCN1[C@@H]2c3ccc(-c4ccccc4)c(=O)n3C[C@@H]2[C@@H](CO)[C@@H]1C(=O)NCC1CC1,2.9,2.8
COc1cccc(-c2ccc3c(c2)O[C@H](CN(C)C(=O)C2CC2)[C@@H](C)CN([C@H](C)CO)S3(=O)=O)c1,-2.3,24.4
CO[C@@H]1CN(C)C(=O)c2ccc(NS(=O)(=O)CC(F)(F)F)cc2OC[C@@H](C)N(Cc2nccs2)C[C@H]1C,3.1,2.8
CN1C(=O)c2cc(NC(=O)NC3CCCC3)ccc2OC[C@H]2O[C@H](CC(=O)NC3CCC3)CC[C@@H]21,5.2,7.5
CN1C(=O)c2cc(NC(=O)Nc3cccc(Cl)c3)ccc2OC[C@H]2O[C@@H](CC(=O)O)CC[C@H]21,9.9,4.3
C[C@H](CO)N1C[C@H](C)[C@@H](CN(C)Cc2ccc(Cl)c(Cl)c2)Oc2ccc(NC(=O)NC3CCCCC3)cc2CC1=O,-9.8,-29.4
C[C@@H]1CN([C@H](C)CO)C(=O)c2cc(NC(=O)Nc3cccc4ccccc34)ccc2O[C@@H](C)CCCCO[C@@H]1CN(C)Cc1ccc(C(=O)O)cc1,18.2,26.8
C[C@H](CO)N1C[C@H](C)[C@H](CN(C)C(=O)NC2CCCCC2)OCCCC[C@H](C)Oc2ccc(NC(=O)CCCN(C)C)cc2C1=O,7.6,6.9
COc1ccc(NC(=O)N(C)C[C@H]2Oc3ccc(NC(=O)Nc4ccc(F)cc4)cc3CC(=O)N([C@H](C)CO)C[C@@H]2C)cc1,5.1,7.4
CCNC(=O)[C@@H]1[C@@H](CO)[C@@H]2Cn3c(ccc(C4=CCCCC4)c3=O)[C@H]1N2CCC(F)(F)F,11.7,10.8
C[C@@H]1CCCCO[C@H](CN(C)C(=O)Nc2ccc3c(c2)OCO3)[C@@H](C)CN([C@H](C)CO)C(=O)c2cc(NC(=O)Nc3ccc4c(c3)OCO4)ccc2O1,12.2,14.5
C[C@@H]1CN([C@@H](C)CO)C(=O)c2cc(-c3ccccc3F)cnc2O[C@@H]1CN(C)Cc1ccc(F)cc1,x,u
CC(C)NC(=O)N(C)C[C@H]1Oc2cc(Br)ccc2S(=O)(=O)N([C@H](C)CO)C[C@@H]1C,7.4,9.4
COc1ccccc1-c1ccc([C@H]2[C@@H](CO)N3CCCCN(C(=O)CN4CCOCC4)C[C@H]23)cc1,-14.4,-3.9
COc1ccc2c3c([nH]c2c1)[C@H](CO)N(C(=O)C1CCCC1)CC31CCN(C(=O)c2ccncc2)CC1,9.6,13.3
C[C@@H]1CN([C@H](C)CO)C(=O)c2cc(Br)cnc2O[C@H]1CN(C)C(=O)c1ccccc1,-5.7,-16.4
CC=Cc1ccc2n(c1=O)C[C@@H]1[C@@H](CO)[C@H](C(=O)NCc3ccc(F)cc3)[C@H]2N1C (mixture of isomers),16.3,6.6
OC[C@@H]1[C@@H](c2ccc(-c3ccccc3F)cc2)[C@@H]2CN(Cc3cncnc3)CCCCN12,-7.1,-6.9
O=C(c1ccc(F)cc1)N1CC(=O)N2[C@@H](CO)[C@@H](c3ccc(C#CC4CCCCC4)cc3)[C@@H]2C1,-17.6,-13.5
O=C(C[C@@H]1CC[C@@H](NS(=O)(=O)c2cccc(F)c2)[C@H](CO)O1)NCc1ccc2c(c1)OCO2,-3.6,-1.3
Cc1ccc(-c2ccc3c(c2)O[C@H](CN(C)C(=O)CC2CC2)[C@H](C)CN([C@@H](C)CO)S3(=O)=O)cc1,-29.3,u
COc1cccc(NC(=O)C[C@H]2CC[C@@H]3[C@@H](COc4ccc(NC(=O)C5CC5)cc4C(=O)N3C)O2)c1,-8.2,-18.3
O=C(C[C@H]1CC[C@@H]2[C@H](COC[C@@H](O)CN2C(=O)Nc2ccc(C(F)(F)F)cc2)O1)NCC1CCCCC1,x,u
CC(C)CC#Cc1ccc2c(c1)O[C@H](CN(C)C(=O)Nc1ccccc1)[C@@H](C)CN([C@@H](C)CO)S2(=O)=O,x,u
C[C@@H]1CN([C@H](C)CO)C(=O)c2cc(NC(=O)Cn3cnnn3)ccc2O[C@H]1CN(C)Cc1ccncc1,3.3,10.8
CC(C)NC(=O)Nc1ccc2c(c1)CC(=O)N([C@H](C)CO)C[C@H](C)[C@H](CN(C)Cc1ccccc1)O2,0.3,14.7
C[C@H]1CN([C@@H](C)CO)C(=O)c2cccc(NS(=O)(=O)c3cn(C)cn3)c2O[C@H]1CN(C)S(=O)(=O)c1cn(C)cn1,39.3,29.6
CCS(=O)(=O)N1CC(=O)N2[C@H](CO)[C@@H](c3ccc(C#CC4CCCCC4)cc3)[C@H]2C1,-12.0,-20.9
C[C@H](CO)N1C[C@H](C)[C@@H](CN(C)S(=O)(=O)c2ccc(-n3cccn3)cc2)OCc2cn(nn2)CCCC1=O,18.7,16.9
Cc1noc(C)c1S(=O)(=O)Nc1cccc2c1O[C@@H](CN(C)S(=O)(=O)c1ccc(F)cc1)[C@@H](C)CN([C@H](C)CO)C2=O,-3.7,-1.3
CC(=O)N(C)C[C@@H]1Oc2cc(-c3ccccc3C)ccc2S(=O)(=O)N([C@H](C)CO)C[C@H]1C,-5.4,12.6
C[C@@H]1CN([C@@H](C)CO)C(=O)c2cc(/C=C/c3ccccc3)cnc2O[C@H]1CN(C)S(=O)(=O)c1ccccc1F,-11.8,-20.5
COc1cccc(NC(=O)N(C)C[C@@H]2Oc3ncc(C#Cc4cccnc4)cc3C(=O)N([C@@H](C)CO)C[C@@H]2C)c1,-11.6,-10.1
COc1ccc(-c2ccc3c(c2)[C@@H]2[C@@H](CCN2S(=O)(=O)C2=NC(C)C=N2)[C@H](CO)N3C)cc1 (stereo not given in full),x,u
O=C(C[C@H]1C=C[C@H](NC(=O)CCN2CCCCC2)[C@H](CO)O1)Nc1nccs1,21.4,5.5
CN(C)CC#Cc1ccc([C@H]2[C@H](CO)N3C(=O)CN(C(=O)Cc4cccnc4)C[C@@H]23)cc1,-4.5,8.1
CC(=O)N(C)C[C@H]1[C@@H](c2ccc(-c3ccc(F)cc3)cc2)[C@@H](CO)N1C(C)=O,7.7,4.0
CC(C)(C)[S@@](=O)N1Cc2cc(C(=O)N[C@@H]3CCN(Cc4ccccc4)C3)nc(-c3cccc(-c4cccnc4)c3)c2[C@H]1CCO,0.0,-22.7
C[C@H](CO)N1C[C@H](C)[C@@H](CN(C)C(=O)NC2CCCCC2)Oc2c(NC(=O)C3CCCCC3)cccc2C1=O,10.9,6.2
CC=Cc1ccc2n(c1=O)C[C@H]1[C@H](CO)[C@@H](C(=O)NCCc3ccncc3)N(Cc3cncnc3)[C@@H]21 (mixture of isomers),14.2,5.8
C[C@@H]1CN([C@@H](C)CO)S(=O)(=O)c2ccc(-c3cccnc3)cc2O[C@@H]1CN(C)CC1CCOCC1,-6.5,-11.9
Cc1noc(C)c1S(=O)(=O)Nc1ccc2c(c1)C(=O)N([C@@H](C)CO)C[C@H](C)[C@H](CN(C)Cc1ccc(C(=O)O)cc1)O2,-1.7,-5.4
COCC(=O)N(C)C[C@@H]1Oc2ncc(C#Cc3ccccc3)cc2C(=O)N([C@H](C)CO)C[C@H]1C,-6.1,-3.8
C[C@H](CO)N1C[C@H](C)[C@H](CN(C)C(=O)c2ccccc2)OCCCC[C@H](C)Oc2ccc(NS(=O)(=O)c3cn(C)cn3)cc2C1=O,3.7,10.4
CCCC#Cc1cnc2c(c1)C(=O)N([C@H](C)CO)C[C@@H](C)[C@H](CN(C)C(=O)Cc1ccccc1)O2,-15.4,-13.0
COc1cccc(NC(=O)N(C)C[C@@H]2Oc3ncc(C4=CCCCC4)cc3C(=O)N([C@H](C)CO)C[C@H]2C)c1,-1.0,-2.5
COc1ccc(CN2CC3(CCN(C(=O)C4CC4)CC3)c3c(n(C)c4cc(OC)ccc34)[C@@H]2CO)cc1,8.9,3.3

Further compounds
Compound,Vaccinia inh Venus,Vaccinia inh
CCN(C[C@H]1[C@H](c2ccccc2)[C@@H](CO)N1C(C)=O)C(=O)NC1CCCC1,7.3,17.4
C[C@@H]1CN([C@@H](C)CO)C(=O)c2cccc(NC(=O)C3CCOCC3)c2O[C@@H]1CN(C)Cc1ccncc1,23.9,47.0
Cc1ccccc1-c1ccc(C2[C@@H]3CN(C(=O)C4CCOCC4)C[C@H]2N3)cc1 (stereo not given in full),4.4&-15.5,14.7&-17.5
CCC(=O)N1C[C@@H](C)[C@@H](OC)CN(C)C(=O)c2ccc(NC(=O)COC)cc2OC[C@@H]1C,9.1,1.4
C[C@H](CO)N1C[C@H](C)[C@@H](CN(C)C(=O)NC2CCCCC2)Oc2ccc(NS(=O)(=O)c3ccccc3)cc2CC1=O,6.0,2.6
N#C[C@H]1[C@@H](c2ccc(C3=CCCC3)cc2)[C@H](CO)N1C(=O)c1cccc(F)c1,5.9,8.6
Cc1noc(C)c1NC(=O)Nc1ccc2c(c1)C(=O)N([C@@H](C)CO)C[C@@H](C)[C@H](CN(C)C(=O)c1ccccc1)OCCCC[C@H](C)O2,6.0,17.8
COc1ccc(NC(=O)N(C)C[C@H]2Oc3ccc(NS(=O)(=O)c4ccc(Cl)cc4)cc3C(=O)N([C@H](C)CO)C[C@@H]2C)cc1,5.7,3.2
O=C(C[C@H]1CC[C@H]2[C@@H](COC[C@H](O)CN2S(=O)(=O)c2ccc(F)cc2)O1)NCc1ccc(Cl)c(Cl)c1,x,u
CO[C@@H]1CN(C)C(=O)c2ccc(NC(=O)C3CCCC3)cc2OC[C@@H](C)N(CCC(F)(F)F)C[C@H]1C,3.5,-5.4
CNC[C@@H]1OCCCC[C@@H](C)Oc2ccc(NC(=O)Cc3ccccc3)cc2C(=O)N([C@@H](C)CO)C[C@H]1C,4.4,-5.8
C[C@H](CO)N1C[C@H](C)[C@H](CN(C)S(=O)(=O)c2ccc(Cl)cc2)Oc2c(NC(=O)c3nc4ccccc4s3)cccc2C1=O,5.9,-0.5
CC(C)NC(=O)N(C)C[C@H]1OCCCC[C@H](C)Oc2ccc(NS(=O)(=O)c3ccc(Cl)cc3)cc2C(=O)N([C@H](C)CO)C[C@H]1C,13.2,18.1
CCCN1[C@@H]2c3cccc(=O)n3C[C@H]1[C@H](CO)[C@H]2C(=O)NC1Cc2ccccc2C1,4.4,9.7
C[C@H]1CN([C@@H](C)CO)C(=O)Cc2cc(NC(=O)C3CCCCC3)ccc2O[C@@H]1CN(C)S(=O)(=O)c1cccs1,0.5,4.4
C[C@H](NC(=O)C[C@H]1C=C[C@@H](NC(=O)Cc2ccccn2)[C@@H](CO)O1)c1ccccc1,1.7,2.3
COCC(=O)Nc1ccc2c(c1)C(=O)N(C)C[C@H](OC)[C@H](C)CN(Cc1cc(F)ccc1F)[C@H](C)CO2,-3.7,-14.5

Shown field by field: entries from further up
C[C@@H]1CCCCO[C@H](CN(C)C(=O)Nc2ccc3c(c2)OCO3)[C@@H](C)CN([C@H](C)CO)C(=O)c2cc(NC(=O)Nc3ccc4c(c3)OCO4)ccc2O1
  Vaccinia inh Venus = 12.2; Vaccinia inh = 14.5

C[C@@H]1CN([C@@H](C)CO)C(=O)c2cc(-c3ccccc3F)cnc2O[C@@H]1CN(C)Cc1ccc(F)cc1
  Vaccinia inh Venus = x; Vaccinia inh = u

From PubChem BioAssay
